Bioassay records: PubChem, Broad Institute
Vaccinia inh: Vaccinia orthopox stage-specific inhibition; Vaccinia-infected cells, mCherry/Venus stage reporter fluorescence; stronger effect = lower value; some inactives read as strong as hits; activity change (mCherry), % (concentration not given with the values); actives 0.01% (n = 89,000); AID 1053133;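 active = mCherry past -33% and 40 or more points under the early reporter, replicates agreeing; inconclusive = past -33% without that gap or agreement; tested in A549 cells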;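 note: scaled between vehicle wells and reference inhibitor wells; 23 nL library stock went into each well; one replicate is shown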
Vaccinia inh Venus: further read-out of Vaccinia inh, marked with its call; activity change (Venus), %; measured here: Venus reporter, other viral stage;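 negative = less Venus signal; first of two replicates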
* marks the source's active call; other numbers are inactive results. Only part of the results is shown; count on the stated rates, not on these rows.

Start of the data: the first 3 entries, ahead of the listing:
For C[C@@H]1CN([C@@H](C)CO)C(=O)Cc2cc(NC(=O)Nc3ccc(F)cc3)ccc2O[C@H]1CN(C)S(C)(=O)=O the results were Vaccinia inh -3 and Vaccinia inh Venus 3.
`O=C(c1cnccn1)N1CC(=O)N2[C@H](CO)[C@H](c3ccc(-c4cccc(F)c4)cc3)[C@H]2C1` gave Vaccinia inh -20 and Vaccinia inh Venus -7.
C[C@@H]1CN([C@@H](C)CO)C(=O)c2cccc(NC(=O)c3ccncc3)c2O[C@H]1CN(C)Cc1ccc(Oc2ccccc2)cc1 was read as Vaccinia inh 23 and Vaccinia inh Venus 13.

The listing, from the first entry:
For C[C@@H]1CN([C@@H](C)CO)C(=O)Cc2cc(NC(=O)Nc3ccc(F)cc3)ccc2O[C@H]1CN(C)S(C)(=O)=O the results were Vaccinia inh -3 and Vaccinia inh Venus 3.
`O=C(c1cnccn1)N1CC(=O)N2[C@H](CO)[C@H](c3ccc(-c4cccc(F)c4)cc3)[C@H]2C1` gave Vaccinia inh -20 and Vaccinia inh Venus -7.
C[C@@H]1CN([C@@H](C)CO)C(=O)c2cccc(NC(=O)c3ccncc3)c2O[C@H]1CN(C)Cc1ccc(Oc2ccccc2)cc1 was read as Vaccinia inh 23 and Vaccinia inh Venus 13.
For CC(C)NC(=O)N(C)C[C@@H]1Oc2c(NS(=O)(=O)c3ccccc3)cccc2C(=O)N([C@@H](C)CO)C[C@H]1C the results were Vaccinia inh 10 and Vaccinia inh Venus 7.
Screening C[C@@H]1CN([C@H](C)CO)C(=O)c2cccc(NC(=O)Nc3ccc(F)cc3)c2O[C@@H]1CN(C)Cc1ccc(Cl)c(Cl)c1 returned Vaccinia inh -30 and Vaccinia inh Venus -23.
`Cc1ccc(S(=O)(=O)Nc2ccc3c(c2)CC(=O)N([C@H](C)CO)C[C@H](C)[C@H](CN(C)Cc2ccc(-c4ccccc4)cc2)O3)cc1` gave Vaccinia inh -18 and Vaccinia inh Venus -11.
`Cc1noc(C)c1S(=O)(=O)N(C)C[C@@H]1Oc2ccc(NC(=O)C3CC3)cc2CC(=O)N([C@@H](C)CO)C[C@@H]1C` gave Vaccinia inh 16 and Vaccinia inh Venus 8.
Screening C[C@H](CO)N1C[C@H](C)[C@@H](CN(C)C(=O)CCC(F)(F)F)OCCCC[C@H](C)Oc2ccc(NC(=O)NC3CCCCC3)cc2C1=O returned Vaccinia inh -26 and Vaccinia inh Venus -17.
Screening C[C@@H]1CN([C@@H](C)CO)C(=O)CCCn2cc(nn2)CO[C@H]1CN(C)C(=O)Nc1ccc(N2CCN(C)CC2)cc1 returned Vaccinia inh 5 and Vaccinia inh Venus 7.
COCC(=O)N(C)C[C@@H]1Oc2ncc(C#Cc3ccc(F)cc3)cc2C(=O)N([C@@H](C)CO)C[C@@H]1C was read as Vaccinia inh 18 and Vaccinia inh Venus 7.
Screening COc1ccc(NC(=O)N(C)C[C@@H]2OCCCC[C@@H](C)Oc3ccc(NS(C)(=O)=O)cc3C(=O)N([C@H](C)CO)C[C@@H]2C)cc1 returned Vaccinia inh 17 and Vaccinia inh Venus 7.
Screening C[C@@H]1CN([C@H](C)CO)C(=O)c2cc(NC(=O)CCC(F)(F)F)ccc2O[C@H]1CN(C)C(=O)Nc1ccc2c(c1)OCO2 returned Vaccinia inh 10 and Vaccinia inh Venus 7.
For Cc1ccc(S(=O)(=O)Nc2cccc3c2O[C@@H](CN(C)C(=O)Nc2ccc4c(c2)OCO4)[C@H](C)CN([C@H](C)CO)C3=O)cc1 the results were Vaccinia inh 9 and Vaccinia inh Venus 16.
Screening C#CCNC(=O)C1=C[C@@H](c2cn(C(C)=O)c3ccccc23)[C@H](CCCO)[C@@H](OCC)O1 returned Vaccinia inh -9 and Vaccinia inh Venus -5.
Screening Cc1ccccc1-c1cnc2c(c1)C(=O)N([C@@H](C)CO)C[C@H](C)[C@H](CN(C)C(=O)c1ccc(F)cc1)O2 returned Vaccinia inh -12 and Vaccinia inh Venus -13.
Screening N#C[C@@H]1[C@H](c2ccccc2-c2cccc(F)c2)[C@H](CO)N1C(=O)C1CCCC1 returned Vaccinia inh 4 and Vaccinia inh Venus 5.
Screening CCCC(=O)Nc1ccc2c(c1)C(=O)N(C)[C@H]1CC[C@@H](CC(=O)NC3CCCC3)O[C@H]1CO2 returned Vaccinia inh 13 and Vaccinia inh Venus 13.
Screening COc1ccc(C(=O)Nc2ccc3c(c2)OC[C@@H](C)N(C(C)=O)C[C@H](C)[C@@H](OC)CN(C)C3=O)cc1 returned Vaccinia inh 6 and Vaccinia inh Venus -2.
C[C@@H]1CN([C@@H](C)CO)C(=O)c2cc(C#CCN(C)C)cnc2O[C@@H]1CN(C)C(=O)Cc1ccccc1 was read as Vaccinia inh 0 and Vaccinia inh Venus 7.
`CCC(=O)N1CC2(C1)[C@H](c1ccc(-c3cccc(C)c3)cc1)[C@@H](CO)N2S(C)(=O)=O` gave Vaccinia inh -17 and Vaccinia inh Venus -7.
CCC(=O)N1CCCCN2[C@H](CO)[C@@H](c3ccc(C#Cc4ccccc4F)cc3)[C@H]2C1 was read as Vaccinia inh inconclusive.
For C[C@H](CO)N1C[C@H](C)[C@H](CN(C)C(=O)NC2CCCCC2)Oc2ccc(NC(=O)Cc3ccccc3)cc2C1=O the results were Vaccinia inh -7 and Vaccinia inh Venus -2.
Screening C#CCN1C(Cc2ccccc2)C(=O)O[C@H](C2CCCCC2)[C@@H]1/C=C/C1CC1 (some centres undefined) returned Vaccinia inh 13 and Vaccinia inh Venus 9.
COc1ccc(S(=O)(=O)N(C)C[C@H]2Oc3ccc(NC(=O)CCCN(C)C)cc3C(=O)N([C@@H](C)CO)C[C@H]2C)cc1 was read as Vaccinia inh 2 and Vaccinia inh Venus 5.
For Cc1ccc(S(=O)(=O)N(C)C[C@@H]2Oc3ncc(-c4ccccc4)cc3C(=O)N([C@H](C)CO)C[C@H]2C)cc1 the results were Vaccinia inh -6 and Vaccinia inh Venus 3.
`C[C@@H]1CN([C@@H](C)CO)C(=O)c2cc(-c3cccc(C#N)c3)cnc2O[C@@H]1CN(C)Cc1ccncc1` gave Vaccinia inh 16 and Vaccinia inh Venus 20.
`CCCN1[C@@H]2c3ccc(-c4ccccc4)c(=O)n3C[C@H]1[C@H](CO)[C@H]2C(=O)OC` gave Vaccinia inh 5 and Vaccinia inh Venus 4.
Screening CC=Cc1ccc2n(c1=O)C[C@H]1N[C@@H]2[C@@H](C(=O)NCc2ccc3c(c2)OCO3)[C@@H]1CO (mixture of isomers) returned Vaccinia inh 15 and Vaccinia inh Venus 18.
COCC#Cc1ccc([C@@H]2[C@@H](CO)N3CCCCN(C(=O)NC4CCCC4)C[C@H]23)cc1 was read as Vaccinia inh -4 and Vaccinia inh Venus -6.
Cc1ccc(S(=O)(=O)N[C@H]2CC[C@@H](CC(=O)NCc3ccccc3F)O[C@H]2CO)cc1 was read as Vaccinia inh -2 and Vaccinia inh Venus -3.
CC(C)C[C@H]1COCc2cn(nn2)CC[C@H](Cc2ccccc2)C(=O)N1 was read as Vaccinia inh 16 and Vaccinia inh Venus 8.
For Cc1noc(C)c1NC(=O)N(C)C[C@@H]1Oc2ccc(N(C)C)cc2CC(=O)N([C@@H](C)CO)C[C@@H]1C the results were Vaccinia inh 6 and Vaccinia inh Venus 4.
Screening COc1ccc(NC(=O)Nc2ccc3c(c2)C(=O)N([C@@H](C)CO)C[C@H](C)[C@@H](CN(C)Cc2ccc4c(c2)OCO4)O3)cc1 returned Vaccinia inh -8 and Vaccinia inh Venus 1.
Screening Cc1ccc(S(=O)(=O)N[C@H]2CC[C@@H](CC(=O)NCc3ccc(Cl)c(Cl)c3)O[C@@H]2CO)cc1 returned Vaccinia inh -20 and Vaccinia inh Venus -14.
`CC(=O)N(C)C[C@H]1Oc2ncc(-c3ccc(C#N)cc3)cc2C(=O)N([C@H](C)CO)C[C@@H]1C` gave Vaccinia inh 10 and Vaccinia inh Venus 5.
Screening CCCc1cn(CC[C@@H]2CC[C@H](NC(=O)CCN3CCCCC3)[C@H](CO)O2)nn1 returned Vaccinia inh 7 and Vaccinia inh Venus 7.
C/C=C/c1ccc([C@@H]2[C@H](CO)N(C(=O)c3cnccn3)C23CN(C(C)=O)C3)cc1 was read as Vaccinia inh 8 and Vaccinia inh Venus 8.
Screening CO[C@@H]1CN(C)C(=O)c2ccc(NC(=O)c3ccccn3)cc2OC[C@@H](C)N(C(=O)C2CC2)C[C@H]1C returned Vaccinia inh 8 and Vaccinia inh Venus 10.
For C[C@@H]1CN([C@@H](C)CO)S(=O)(=O)c2ccc(C3=CCCCC3)cc2O[C@H]1CN(C)Cc1cncnc1 the results were Vaccinia inh -21 and Vaccinia inh Venus -21.
`CS(=O)(=O)N1[C@@H]2c3ccc(-c4ccccc4)c(=O)n3C[C@H]1[C@H](CO)[C@H]2C(=O)NCC1CC1` gave Vaccinia inh 2 and Vaccinia inh Venus 5.

Reprinted from the part before: two compounds; new compounds follow.
For C[C@@H]1CN([C@@H](C)CO)S(=O)(=O)c2ccc(C3=CCCCC3)cc2O[C@H]1CN(C)Cc1cncnc1 the results were Vaccinia inh -21 and Vaccinia inh Venus -21.
`CS(=O)(=O)N1[C@@H]2c3ccc(-c4ccccc4)c(=O)n3C[C@H]1[C@H](CO)[C@H]2C(=O)NCC1CC1` gave Vaccinia inh 2 and Vaccinia inh Venus 5.
C[C@H](CO)N1C[C@H](C)[C@@H](CN(C)C(=O)Nc2ccccc2)Oc2ccc(NS(=O)(=O)c3ccc(F)cc3)cc2CC1=O was read as Vaccinia inh 15 and Vaccinia inh Venus 11.
`COc1ccc(S(=O)(=O)Nc2ccc3c(c2)C(=O)N([C@@H](C)CO)C[C@@H](C)[C@H](CN(C)S(=O)(=O)c2ccc(Cl)cc2)OCCCC[C@@H](C)O3)cc1` gave Vaccinia inh inconclusive.
C[C@@H]1CN([C@@H](C)CO)C(=O)c2cc(NC(=O)c3ccncc3)ccc2O[C@H]1CN(C)S(=O)(=O)c1ccc(Cl)cc1 was read as Vaccinia inh 12 and Vaccinia inh Venus 8.
Screening CO[C@@H]1CN(C)C(=O)c2ccc(NC(=O)C3CCOCC3)cc2OC[C@@H](C)N(C(=O)C2CCOCC2)C[C@H]1C returned Vaccinia inh -1 and Vaccinia inh Venus -5.
C[C@@H]1CN([C@H](C)CO)C(=O)Cc2cc(NC(=O)Nc3cccc4ccccc34)ccc2O[C@H]1CN(C)CC1CC1 was read as Vaccinia inh 10 and Vaccinia inh Venus 12.
For COCC#Cc1ccc2c(c1)O[C@@H](CN(C)CC1CC1)[C@@H](C)CN([C@H](C)CO)S2(=O)=O the results were Vaccinia inh 25 and Vaccinia inh Venus 12.
For O=C(O)C[C@@H]1C[C@H]2c3cc(NC(=O)Cc4ccncc4)ccc3O[C@H]2[C@H](CO)O1 the results were Vaccinia inh 11 and Vaccinia inh Venus 11.
Screening CN1c2ccc(-c3ccccc3)cc2[C@H]2[C@H](CCN2C(=O)c2cccc(F)c2)[C@@H]1CO returned Vaccinia inh -28 and Vaccinia inh Venus -21.
For CC(=O)N(C)C[C@@H]1Oc2ncc(C#CC3(O)CCCC3)cc2C(=O)N([C@H](C)CO)C[C@@H]1C the results were Vaccinia inh 15 and Vaccinia inh Venus 8.
`C[C@H]1CN([C@@H](C)CO)C(=O)c2cc(NC(=O)NC3CCCCC3)ccc2O[C@@H]1CN(C)C(=O)Nc1ccc(F)cc1` gave Vaccinia inh 8 and Vaccinia inh Venus 7.
C[C@H]1CCCCO[C@H](CN(C)C(=O)c2ccccc2)[C@@H](C)CN([C@@H](C)CO)C(=O)c2cc(N(C)C)ccc2O1 was read as Vaccinia inh -1 and Vaccinia inh Venus -1.
For C[C@@H]1CN([C@@H](C)CO)S(=O)(=O)c2ccc(C#C[C@@H](C)O)cc2O[C@@H]1CN(C)C(=O)Nc1ccccc1 the results were Vaccinia inh 1 and Vaccinia inh Venus 5.
C[C@@H]1CN([C@H](C)CO)C(=O)c2cc(C#CCN(C)C)cnc2O[C@H]1CN(C)C(=O)NC1CCCCC1 was read as Vaccinia inh 26 and Vaccinia inh Venus 16.
C[C@@H](O)C#Cc1ccc([C@@H]2[C@@H](CO)N3CCCCN(C(=O)c4cccc(F)c4)C[C@@H]23)cc1 was read as Vaccinia inh 34 and Vaccinia inh Venus 18.
Screening COc1ccccc1-c1cnc2c(c1)C(=O)N([C@H](C)CO)C[C@H](C)[C@H](CN(C)Cc1ccc(C(=O)O)cc1)O2 returned Vaccinia inh 15 and Vaccinia inh Venus 2.
`N#C[C@H]1[C@@H](c2ccccc2)[C@H](CO)N1C(=O)Nc1cccc(F)c1` gave Vaccinia inh 6 and Vaccinia inh Venus 3.
Cc1ccc(S(=O)(=O)N(C)C[C@@H]2Oc3c(NC(=O)Nc4ccc(F)cc4)cccc3C(=O)N([C@@H](C)CO)C[C@@H]2C)cc1 was read as Vaccinia inh inconclusive.
Screening C[C@@H]1CN([C@@H](C)CO)C(=O)c2cccc(NC(=O)c3ccncc3)c2O[C@@H]1CN(C)Cc1ccc(Cl)c(Cl)c1 returned Vaccinia inh -19 and Vaccinia inh Venus -10.
`Cc1noc(C)c1NC(=O)Nc1cccc2c1O[C@H](CN(C)C(=O)Nc1ccc3c(c1)OCO3)[C@H](C)CN([C@H](C)CO)C2=O` gave Vaccinia inh 3 and Vaccinia inh Venus 5.
For O=C(C[C@H]1CC[C@@H]2[C@H](COC[C@@H](O)CN2C(=O)Nc2cccc(F)c2)O1)NCc1ccccc1F the results were Vaccinia inh -21 and Vaccinia inh Venus -16.
COCC#Cc1cnc2c(c1)C(=O)N([C@H](C)CO)C[C@H](C)[C@H](CN(C)C(=O)C1CCOCC1)O2 was read as Vaccinia inh 10 and Vaccinia inh Venus 11.
Screening C[C@H](CO)N1C[C@H](C)[C@@H](CN(C)C(=O)Nc2ccc(C(F)(F)F)cc2)Oc2c(NC(=O)Nc3ccc(F)cc3)cccc2C1=O returned Vaccinia inh inconclusive.
`COc1ccccc1CN1C[C@H](C)[C@H](OC)CN(C)C(=O)c2ccc(NC(C)=O)cc2OC[C@H]1C` gave Vaccinia inh 5 and Vaccinia inh Venus -1.
